PAD4 FP inh: inhibitors of human PAD4; inhibition, % at 6.36 µM; AID 485272; actives 0.41% (n = 330,000); recombinant PAD4, RCA probe fluorescence polarization;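 active = percent inhibition above a cutoff equal to the mean of all tested compounds plus 3 SD, cut at about 15% in these data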;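 note: 0% = PAD4 with RCA probe and DMSO and 100% = probe without PAD4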
GSTO1 counter: GSTO1 inhibition, counter-screen for RBBP9 inhibitors. recombinant GSTO1, activity-based probe fluorescence polarization. inhibition, % at 5.96 µM. actives 1.1% (n = 300,000). AID 1974;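 active = inhibition above the campaign mean inhibition plus 3 SD, cut at about 35% in these data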;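 note: 0% = GSTO1-1 with DMSO and 100% = wells lacking GSTO1-1 enzyme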
Target sequence (P78417 whole entry, looked up): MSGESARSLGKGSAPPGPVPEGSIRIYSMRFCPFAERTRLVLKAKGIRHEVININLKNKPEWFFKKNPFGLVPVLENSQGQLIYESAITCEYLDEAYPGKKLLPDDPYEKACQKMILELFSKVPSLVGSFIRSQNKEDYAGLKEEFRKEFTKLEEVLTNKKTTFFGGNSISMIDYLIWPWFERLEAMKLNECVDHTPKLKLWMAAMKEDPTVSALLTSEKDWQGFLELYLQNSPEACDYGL
PAFAH1B2 FP inh: inhibitors of human PAFAH1B2; P68402; recombinant PAFAH1B2, FP-rhodamine activity probe, fluorescence polarization; inhibition, % at 3.39 µM; actives 1.2% (n = 340,000);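 active = inhibition above the mean of all tested compounds plus 3 SD, cut at about 24% in these data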;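 note: 0% = enzyme with DMSO and 100% = wells lacking PAFAH1B2; many of its hits are not listed in these tables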
PAFAH1B3 FP inh: PAFAH1B3 (human) inhibition; AID 492972; inhibition, % at 3.39 µM; recombinant PAFAH1B3, FP-rhodamine probe, fluorescence polarization; actives 0.28% (n = 340,000);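 active = inhibition above the screen-wide average of all tested compounds plus 3 SD, cut at about 25% in these data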;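 note: 0% = enzyme with DMSO only and 100% = wells lacking PAFAH1B3 protein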
Target sequence (Q15102 whole entry, looked up): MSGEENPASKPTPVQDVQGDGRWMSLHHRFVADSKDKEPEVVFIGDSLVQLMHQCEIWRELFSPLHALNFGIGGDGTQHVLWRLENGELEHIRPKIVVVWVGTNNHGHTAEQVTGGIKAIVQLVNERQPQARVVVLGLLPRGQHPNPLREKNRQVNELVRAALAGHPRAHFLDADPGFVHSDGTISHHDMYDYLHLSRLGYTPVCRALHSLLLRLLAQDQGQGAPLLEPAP
LYPLA1 inh: blocks human lysophospholipase 1, a PME1 counter-screen; actives 0.16% (n = 320,000); recombinant LYPLA1, FP-Rh probe fluorescence polarization; inhibition, % at 5.9 µM; AID 2174; O75608;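 active = inhibition above the mean of all tested compounds plus 3 SD, set per campaign, cut at about 14% in these data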;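 note: inhibitors block serine hydrolase probe labeling of LYPLA1 so polarization falls; 0% = enzyme with DMSO and 100% = wells lacking LYPLA1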
pPAFAH FP inh: inhibitors of human plasma PAF acetylhydrolase (pPAFAH); Q13093; recombinant pPAFAH, FP-rhodamine probe fluorescence polarization; inhibition, % at 3.39 µM; actives 1.5% (n = 330,000);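 active = inhibition above the mean inhibition across the screen plus 3 SD, cut at about 25% in these data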;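 note: inhibitors block binding of the rhodamine activity-based probe so polarization drops; 0% = enzyme with DMSO and 100% = wells lacking pPAFAH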
PME-1 primary: PME-1 (human) inhibition; actives 0.53% (n = 320,000); Q9Y570; inhibition, % at 5.9 µM; recombinant PME-1, FP-Rh probe fluorescence polarization; AID 2130;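 active = inhibition above the campaign mean of all compounds plus 3 SD, cut at about 26% in these data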;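 note: competitive labeling of PME-1 active site by serine hydrolase directed probe; 0% = PME-1 with DMSO and 100% = wells lacking PME-1 enzyme; inhibitors block probe labeling so polarization falls and inhibition rises; many of its hits are not listed in these tables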
LYPLA2 inh: LYPLA2 (human) inhibition in PME1 counter-screen. actives 0.38% (n = 320,000). inhibition, % at 5.9 µM. AID 2177. recombinant LYPLA2, FP-Rh probe fluorescence polarization;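 active = inhibition above the screen-wide mean plus 3 SD, limit set per campaign, cut at about 26% in these data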;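 note: 0% = LYPLA2 with DMSO and 100% = wells lacking LYPLA2 enzyme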
Starred values were filed as active, the others as inactive; . = no result given. This is a subset. The share of hits here may be higher or lower than overall.

SMILES	PAD4 FP inh	GSTO1 counter	PAFAH1B2 FP inh	PAFAH1B3 FP inh	LYPLA1 inh	pPAFAH FP inh	PME-1 primary	LYPLA2 inh
Cc1cc(SCC(=O)OCC(=O)c2c(N)n(C)c(=O)n(C)c2=O)c(C)cc1Br	2	-7	3	4	-12	-6	-9	-11
Cc1ccc(-n2nc3c(N4CCC(C(=O)N5CCCCCC5)CC4)nnc(C)c3c2C)cc1	-2	7	4	-1	1	-1	-5	7
CC1CN(CCc2ccccc2)c2nc3c(c(=O)[nH]c(=O)n3C)n2C1 (configuration not stated)	2	-5	4	5	-2	3	0	-3
NCc1cc2c3c(c1)CCCN3CCC2	0	14	4	11	4	4	4	0
COc1ccc(C2CC(c3ccc(OC)cc3)n3nc(NS(C)(=O)=O)nc3N2)cc1 (configuration not stated)	1	0	-1	3	-2	1	0	2
COc1cc(/C=N\NC(=O)CN2CCOCC2)ccc1OCC(=O)Nc1ccc(C)c(C)c1	-8	3	6	5	-1	3	-5	-9
CC1(C)CC(NC(=O)COc2ccc(Br)cc2Cl)CC(C)(C)N1	-1	4	7	1	-4	4	3	-3
Cc1ccc(C)c(NC(=O)CSc2sc3c(O)cc(=O)[nH]c3c2C#N)c1	-1	12	4	10	-15	18	-16	-20
N#Cc1nc(-c2ccc(OCc3ccccc3)cc2)oc1NCCCn1ccnc1	-2	-3	11	15	1	17	12	9
COc1cc(/C=C2\SC(=O)NC2=O)ccc1OCC(=O)N1CCOCC1	-2	.	8	5	.	-5	.	.
Cc1cc(N2CCN(c3ccccc3Cl)CC2)n2cc(-c3ccccc3)nc2n1	-5	-12	0	9	-4	7	1	-7
Cc1oc(-c2cccc(Cl)c2)nc1CN1CCC(C(=O)NCC2CCCO2)CC1 (configuration not stated)	1	5	4	-3	-1	0	-8	-5
COCCNc1nc(SCC(=O)N2CCN(c3ccccc3)CC2)nc2ccccc12	-3	4	0	-2	0	5	1	4
COc1ccc(CCC(=O)OCC(=O)Nc2sccc2C(N)=O)cc1	1	.	0	-3	-6	6	0	1
COc1cc(/C=N/Nc2ccc(Cl)c(C(=O)O)c2)ccc1OC(=O)c1cccs1	-4	15	1	8	3	5	7	5
COCCN=C1N[C@@H](c2ccc(Br)cc2)C(C(=O)OC)=C(C)N1Cc1ccccc1	1	2	1	5	0	2	10	4
N#CC1=C(Nc2ccccc2)SC=C(c2ccc(Cl)c(Cl)c2)N=C1N1CCOCC1	-2	-5	-1	-5	-3	7	-4	1
NC(=O)c1sc2nc3c(c(-c4ccc(Cl)cc4)c2c1N)CCCC3	-4	-7	4	7	2	30*	-9	6
CCOc1cc(/C=N/Nc2nc3ccccc3[nH]2)cc(Br)c1OCC(=O)N(C)C	5	10	4	1	4	11	-24	2
CCCCN1C(=N)N([C@@H](C)CN2CCC[C@H]2CN2C(N)=NC[C@H]2CC(C)C)C[C@H]1Cc1ccccc1	4	.	-10	0	.	-2	.	.
COc1ccc(NC(=O)CSc2sc3c(O)cc(=O)[nH]c3c2C#N)c(OC)c1	-5	32	9	13	-14	36*	-16	-16
O=C1CCC(C(=O)OCC(=O)N2N=C3/C(=C/c4ccccc4)CCCC3C2c2ccccc2)N1 (configuration not stated)	0	-25	8	3	1	7	22	11
COc1ccc(C2CC(c3ccc(Cl)cc3Cl)n3nc(N)nc3N2)cc1 (configuration not stated)	-3	0	4	8	-4	-2	7	10
CCOC(=O)C1CCN(c2cc3c(cc2NC(=O)c2ccccc2OCC)n(C)c(=O)n3C)CC1	5	-4	7	5	-2	31*	12	0

Among those listed so far, these have an aryl methoxy group.
SMILES	PAD4 FP inh	GSTO1 counter	PAFAH1B2 FP inh	PAFAH1B3 FP inh	LYPLA1 inh	pPAFAH FP inh	PME-1 primary	LYPLA2 inh
COc1ccc(C2CC(c3ccc(OC)cc3)n3nc(NS(C)(=O)=O)nc3N2)cc1 (configuration not stated)	1	0	-1	3	-2	1	0	2
COc1cc(/C=N\NC(=O)CN2CCOCC2)ccc1OCC(=O)Nc1ccc(C)c(C)c1	-8	3	6	5	-1	3	-5	-9
COc1cc(/C=C2\SC(=O)NC2=O)ccc1OCC(=O)N1CCOCC1	-2	.	8	5	.	-5	.	.
COc1ccc(CCC(=O)OCC(=O)Nc2sccc2C(N)=O)cc1	1	.	0	-3	-6	6	0	1
COc1cc(/C=N/Nc2ccc(Cl)c(C(=O)O)c2)ccc1OC(=O)c1cccs1	-4	15	1	8	3	5	7	5
COc1ccc(NC(=O)CSc2sc3c(O)cc(=O)[nH]c3c2C#N)c(OC)c1	-5	32	9	13	-14	36*	-16	-16
COc1ccc(C2CC(c3ccc(Cl)cc3Cl)n3nc(N)nc3N2)cc1 (configuration not stated)	-3	0	4	8	-4	-2	7	10

Other compounds follow:
SMILES	PAD4 FP inh	GSTO1 counter	PAFAH1B2 FP inh	PAFAH1B3 FP inh	LYPLA1 inh	pPAFAH FP inh	PME-1 primary	LYPLA2 inh
Cn1c(=O)c2c(SCC(=O)N3CCN(c4ccccc4)CC3)nc(C3CC3)nc2n(C)c1=O	0	-3	1	-2	7	8	-1	11
O=C(Oc1coc(CSc2nnc(NC(=O)c3cccs3)s2)cc1=O)c1ccccc1	-1	7	3	2	-4	11	2	5
O=C(CSCc1ccc(F)cc1)N1CCN(c2ccccc2)CC1	2	-1	4	8	1	16	3	6
Cc1nnc2ccc(Oc3ccc(-c4ccccc4)cc3)nn12	0	2	18	7	2	0	-1	6
O=C(c1cccs1)N1CCN(c2ccc(F)cc2)CC1	-1	1	5	-3	1	4	-1	4
O=C(CSc1nc2nn(-c3ccccc3)c(=O)c-2c2n1CCCCC2)NCCCc1ccccc1	2	-4	0	-5	-2	7	-2	4
COc1ccc(C2C3=C(NCCN=C3c3ccccc3)C(=O)N2c2ccccc2)c(OC)c1 (configuration not stated)	-1	-2	5	3	2	-1	-3	-4

One compound at a time, as listed above.
`O=C(c1cccs1)N1CCN(c2ccc(F)cc2)CC1` in the list: PAD4 FP inh: -1; GSTO1 counter: 1; PAFAH1B2 FP inh: 5; PAFAH1B3 FP inh: -3; LYPLA1 inh: 1; pPAFAH FP inh: 4; PME-1 primary: -1; LYPLA2 inh: 4
`O=C(Oc1coc(CSc2nnc(NC(=O)c3cccs3)s2)cc1=O)c1ccccc1` in the list: PAD4 FP inh: -1; GSTO1 counter: 7; PAFAH1B2 FP inh: 3; PAFAH1B3 FP inh: 2; LYPLA1 inh: -4; pPAFAH FP inh: 11; PME-1 primary: 2; LYPLA2 inh: 5

High-throughput results (PubChem BioAssay)
